Bioassay records (PubChem BioAssay)
D2 ag = agonists of human D2 dopamine receptor (beta-arrestin); P14416; DiscoveRx PathHunter D2 beta-arrestin, luminescence, 90 min; 100% = 57 uM dopamine signal; activation, % (test concentration not listed); 0.084% of 360,000 active; AID 624465; in the data active = activation above about 40%; inconclusive = about 15% to 40%; inactive = below about 15%; note: compound concentration not given in the record; the text of the record calls up to 30% inactive
Target sequence (P14416 whole entry, looked up): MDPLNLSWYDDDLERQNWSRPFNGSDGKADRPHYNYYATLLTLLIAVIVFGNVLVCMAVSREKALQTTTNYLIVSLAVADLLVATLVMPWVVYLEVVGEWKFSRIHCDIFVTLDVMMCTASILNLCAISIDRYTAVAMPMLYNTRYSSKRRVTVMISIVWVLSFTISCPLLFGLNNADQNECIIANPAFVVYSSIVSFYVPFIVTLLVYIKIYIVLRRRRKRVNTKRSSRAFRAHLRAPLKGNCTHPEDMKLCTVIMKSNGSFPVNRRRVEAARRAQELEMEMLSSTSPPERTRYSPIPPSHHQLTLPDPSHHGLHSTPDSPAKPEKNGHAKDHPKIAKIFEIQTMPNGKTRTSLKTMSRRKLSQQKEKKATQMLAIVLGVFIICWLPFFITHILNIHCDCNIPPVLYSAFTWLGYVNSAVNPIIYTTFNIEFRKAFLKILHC
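DiscoveRx PathHunter D2 beta-arrestin cells (2,100/well) attached overnight, then compound-stimulated 90 min at 37 C in HBSS/10 mM HEPES/0.1% Tween-20 buffer; beta-galactosidase complementation read by luminescence after 1 h at ambient temperature. Dopamine 57 uM final (EC100) as control.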
gsp antagonist = gsp mutant antagonism; gsp-mutant cells, cAMP HTRF, 30 min; control for the full effect not named in the record; Potency, µM (doses to about 76.9 µM), for the others: top-dose activity change, negative = inhibition, most hits filed as inhibitors; 0.4% of 340,000 active; AID 624288; active = falling curve of any shape with a large fitted effect; inconclusive = falling curve, mostly with a smaller effect; inactive = flat or rising curve; cell line not stated here;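 note: intracellular cAMP measured with PDE inhibitor Ro 20-1724 present during compound exposure; potency is the fitted concentration of half-maximal effect; % is set by controls: 0 for no effect and ±100 for the full control effect; nearly all actives have a fitted effect of over 65% in size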
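Measurement of cellular cAMP by homogeneous time-resolved fluorescence following a 30 min compound exposure at 37C. The PDE inhibitor […] was present throughout; the assay buffer was DPBS with 0.05% BSA and 0.005% Tween 20.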
PINK1 modulator = modulators of PINK1 expression. PINK1 immunofluorescence, high-content cytometry, 24 h. Potency, µM (titrated, usually from 76.6 µM), for inactives: at the highest dose activation (PINK1 increase), actives largely listed as activators. 0.2% of 410,000 active. AID 624263; active = well fitted activation curve with a large enough effect; inconclusive = small, poorly fitted or top-dose-only effect; inactive = flat fitted curve, though single readings scatter; cell line not stated here;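 note: potency is the fitted concentration of half-maximal effect; % of control where 0% means no effect; nearly all actives have a fitted effect of over 65% in size; a mitochondrial uncoupler was the plate control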
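Compound titrations (5 concentrations, 24 h) on a stable cell line; DMSO and CCCP controls. Endpoint: fixed-cell PINK1 immunofluorescence with mitochondrial, cell and nuclear markers, scanned by microplate cytometer.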
ClpP mod = qHTS Assay for Activators of ClpP; ATP-dependent Clp protease proteolytic subunit (Bacillus subtilis (strain 168)), P80244; purified B. subtilis ClpP, FRET peptide cleavage, 20 min; Potency, µM (titrated, usually from 57.5 µM), for the others: at the highest dose activity change, negative = active; 1.9% of 340,000 active; AID 651965, 2013; active = well fitted falling curve with a large enough effect; inconclusive = small, poorly fitted or top-dose-only effect; inactive = no such curve, though single readings can be large or run the other way; note: potency is the fitted concentration of half-maximal effect; the source files actives as falling curves though it sought activators and does not explain the sign; nearly all actives have a fitted effect of over 65% in size; many hits overshoot -100%
Target sequence (P80244 whole entry, looked up): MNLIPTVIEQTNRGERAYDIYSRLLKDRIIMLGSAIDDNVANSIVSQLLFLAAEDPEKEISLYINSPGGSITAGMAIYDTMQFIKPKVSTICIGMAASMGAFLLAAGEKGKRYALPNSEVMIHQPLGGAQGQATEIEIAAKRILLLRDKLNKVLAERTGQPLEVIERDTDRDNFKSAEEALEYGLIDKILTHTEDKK
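FRET quenching reversal measured ClpP activation: 10 microg/mL B. subtilis ClpP at pH 8 with the FRET-FV decapeptide, read at 430 nm after 320 nm excitation. The 20-min minus 0-min signal was scaled between DMSO/no-enzyme wells and ADEP (5.8 microM final).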
gsp agonist = agonists of gsp mutant (McCune-Albright syndrome) | gsp mutant cells, cAMP HTRF, 30 min; control for the full effect not named in the record | Potency, µM (highest dose often 76.9 µM), for the others: top-dose activation (cAMP increase), most hits filed as activators | 0.13% of 340,000 active | AID 624287; active = well fitted activation curve with a large enough effect; inconclusive = small, poorly fitted or top-dose-only effect, or another doubt; inactive = no such curve, though single readings can be large or run the other way; cell line not stated here;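 note: phosphodiesterase inhibitor Ro 20-1724 added with compounds to block cAMP breakdown; potency is the fitted concentration of half-maximal effect; nearly all actives have a fitted effect of over 60% in size; about a fifth of the inactives were tested at one dose only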
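Cells stably selected in G418 were plated at 2000/well, grown 16-24 hr, then given compounds in DMSO with the PDE inhibitor […] (300 uM solution added) for 30 min at 37C; cAMP was read by HTRF.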
Menin MLL FP FL = menin-MLL binding inhibition, fluorescein peptide | Fluorescence polarization, fluorescein-MLL peptide displacement from menin | FP activity change, % at 61.4 µM | 290,000 tested, under 10 active; inconclusive = falling polarisation curve, or a change in total fluorescence; inactive = total fluorescence flat and polarisation flat or rising; no compound was filed as active; the % refers to the polarisation; negative = inhibition;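 note: % of control where 0% means no effect; inhibitors lower the polarisation; unlabelled MLL peptide was the positive control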
Sfp inh = Sfp phosphopantetheinyl transferase inhibition | Q9F4F7 | Biochemical Sfp PPTase activity, qHTS | Potency, µM, for the others: max response, negative = inhibition, most hits filed as inhibitors | 3.5% of 310,000 active; active = well fitted inhibition curve with a large enough effect; inconclusive = small, poorly fitted or top-dose-only effect, or another doubt; inactive = no such curve, though single readings can be large or run the other way;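 note: the enzyme is Sfp with the accession as filed and its product quenches rhodamine fluorescence; potency is the fitted concentration of half-maximal effect; 0% = enzyme reaction without inhibitor and -100% = no enzyme wells; top concentration of the series not given in the record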
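Buffer: 50 mM Hepes-Na pH 7.6, 10 mM MgCl2, 0.01% Nonidet P-40, 0.01% BSA. Enzyme 15 nM, pre-exposed to compound 15 min; substrates then added and fluorescence change tracked over 30 min.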
* hit, by the source's call; ? = inconclusive; . = no result given; & = joins results of further samples; [ ] = dose if it differs, or a comment.

item	molecule	Menin MLL FP FL	PINK1 modulator	gsp agonist	ClpP mod	D2 ag	Sfp inh	gsp antagonist
1	CC(=O)Nc1cccc(Oc2ccc(-c3noc(C)n3)cc2)c1	2.1	-1.1%	1%	1.0%	-1.5	6%	25%
2	NC(=O)C(c1ccccc1)C1CCCC1 (stereo unspecified)	3.5	-1.0%	2%	-3.0%	-0.6	24%	7%
3	O=c1c2ccccc2nc(SCc2nc3ccccc3s2)n1Cc1ccco1	4.7	?	-32%[inhibitor]	-3.2%	2.2	?	4%
4	COc1ccc(OC)c(CNC(=O)C2CCCN(S(=O)(=O)N3CC(C)CC(C)C3)C2)c1 (stereo unspecified)	.	0.1%	-40%[inhibitor]	0.4%	0.5	-1%	-4%
5	CN1CCN(C(=S)c2ccc(OCC(=O)Nc3cccc(C(F)(F)F)c3)cc2)CC1	1.4	-1.2%	5%	-1.0%	-0.2	7%	-1%
6	CCCc1cc(=O)n2nc(N3CCC(C(=O)Nc4cccc(C(C)=O)c4)CC3)sc2n1	.	1.7%	2%	-3.4%	-2.2	11%	-4%
7	O=C(Cc1ccccc1[N+](=O)[O-])Nc1ccc2c(c1)OCCO2	-0.8	8.3%	-13%	-0.6%	-1.4	11%	11%
8	C[C@H](CO)N1C[C@H](C)[C@@H](CN(C)C(=O)Nc2cccc(Oc3ccccn3)c2)OCc2cnnn2CCCC1=O	.	-0.8%	37%	0.0%	0.5	.	.
9	Cc1ccc(Cn2c(SCC(N)=O)nc3c2c(=O)n(C)c(=O)n3C)cc1	4.1	-3.3%[38.3 µM]	-2%	-1.5%	0.2	5%	9%
10	CCN(c1ccccc1)S(=O)(=O)c1cccc(C(=O)NCC(c2cccs2)N2CCOCC2)c1 (stereo unspecified)	.	0.6%	-41%[inhibitor]	-11%	-0.2	.	-9%
11	COc1ccc(/C=C/C(=O)Oc2ccc(/C=N/NC(=O)c3ccccc3)cc2)cc1OC	0.8	11%	-48%[inhibitor]	?	-0.5	-24%	4%
12	Cn1c(N)c(C(=O)COC(=O)CCCN2C(=O)c3ccccc3C2=O)c(=O)n(C)c1=O	-1.8	1.9%	?	-1.2%	-3.0	13%	-2%

(continued)
item	molecule	Menin MLL FP FL	PINK1 modulator	gsp agonist	ClpP mod	D2 ag	Sfp inh	gsp antagonist
13	O=C(Nc1cccnc1)c1ccc2ccccc2c1O	-0.9	0.4%	10%[15.4 µM]	0.1%	10.0	19%	1%
14	CCN(CC)CCCC(C)NC1=NCCCCC1 (stereo unspecified)	1.0	-1.4%	-20%	0.2%	-1.7	6%	11%
15	COc1ccc(CN(C)C(=O)c2ccc(NS(=O)(=O)c3ccc4[nH]c(=O)[nH]c4c3)cc2)c(OC)c1	.	4.8%	-17%	0.9%	-0.6	5%	18%
16	Cc1cc(NC(=O)c2ccc3c(c2)OCCO3)ccc1NC(=O)c1ccco1	?	-2.6%	-36%[inhibitor]	.	0.3	-14%	-8%
17	Cc1ccc(C(=O)OCc2cn3ccccc3n2)cc1	0.1	1.0%	-3%	-8.3%	-3.1	-2%	-2%
18	O=C(Nc1ccccc1)c1ccc(NC(=O)c2cccs2)cc1	.	1.0%	34%	-23%	0.5	16%	-10%
19	CCOC(=O)C1CCCN(c2c(NCCN3CCCCC3CC)c(=O)c2=O)C1 (stereo unspecified)	1.3	2.5%	33%	1.5%	-2.9	5%	1%
20	O=C(NCC1CCOCC1)C1CCC(=O)N(Cc2cccc(C(F)(F)F)c2)C1 (stereo unspecified)	.	-0.8%	24%	-0.9%	-1.1	13%	14%
21	Nc1cc(=O)[nH]c(SCC(=O)N2N=C(c3ccc4ccccc4c3)CC2c2ccccc2)n1 (stereo unspecified)	9.2	3.6%	3%[15.4 µM]	.	-1.0	21%	-27%
22	CC1(C)NC(=O)N(CC(=O)OCC(=O)Nc2cc(S(=O)(=O)N3CCCCC3)ccc2Cl)C1=O	5.4	2.4%	2%[15.4 µM]	-0.2%	-6.2	2%	2%
23	COc1ccc(C(=O)n2ncc(C#N)c2N)cc1	0.2	-2.2%	3%[15.4 µM]	.	-2.9	3%	-19%
24	COc1ccc(-c2csc(NC3=NCCCCC3)n2)cc1	-1.1	-0.9%	4%	0.8%	-1.0	-17%	-3%

(listing goes on)
item	molecule	Menin MLL FP FL	PINK1 modulator	gsp agonist	ClpP mod	D2 ag	Sfp inh	gsp antagonist
25	CC(=O)Nc1ccc(S(=O)(=O)Nc2nnc(C3CCCCC3)s2)cc1	1.4	-0.4%	5%	1.6%	-3.3	3%	9%
26	CC(C)CC(=O)Nc1ccccc1N1CCCC1	2.8	0.1%	-35%	-2.3%	-2.9	7%	-12%
27	Cc1nc(-c2ccc(Cl)cc2)sc1C1(C)CC(c2ccc(OC(F)(F)F)cc2)=NO1 (stereo unspecified)	6.2	3.4%	.	?	-3.2	-12%	0%
28	O=C(c1cnccn1)N1CCC2(CCCN(c3ccccn3)C2)CC1	-1.0	0.1%	.	.	.	24%	.
29	CCOc1ccc(NC(=O)C(C)Sc2nnc(C)n2C)cc1 (stereo unspecified)	-1.7	1.8%	26%	-3.9%	-2.4	11%	8%
30	COc1ccc(C)cc1N(C(=O)c1ccco1)C(C(=O)NC1CCCC1)c1ccc(N2CCOCC2)cc1 (stereo unspecified)	.	2.0%	-18%[15.4 µM]	.	-2.0	6%	-15%
31	O=C(NCc1ccco1)c1cc(S(=O)(=O)N2CCCc3ccccc32)ccc1Cl	4.0	-0.9%	19%	-1.0%	-3.2	11%	-6%
32	CN(CC(=O)Nc1ccc(Cl)cc1)C(=O)CCNC(=O)c1ccc(Cl)cc1	.	3.5%	24%	-1.7%	-3.1	.	0%
33	CCOCCCN1C(=O)CN(C2CCCCC2)C(=O)C1c1ccc(OC)c(OC)c1 (stereo unspecified)	-0.2	6.4%[38.3 µM]	-6%	2.1%	2.2	20%	1%
34	Cc1cc(C(=O)COC(=O)c2ccc(O)cc2O)c(C)n1-c1ccc(OC(F)F)cc1	.	?	-16%	7.3%	3.6	.	-18%
35	CCSCCNC(=O)c1cc(-n2cnnc2)ccc1Cl	0.2	0.7%	-23%	-0.6%	-0.2	-1%	1%
36	Cc1cccnc1C1=NOC(Cc2ccccc2)C(=O)N1Cc1ccc(F)cc1 (stereo unspecified)	.	0.0%	.	-0.8%	12	.	.

Further compounds.
item	molecule	Menin MLL FP FL	PINK1 modulator	gsp agonist	ClpP mod	D2 ag	Sfp inh	gsp antagonist
37	Cc1cc(=O)[nH]c(SCC(=O)Nc2nonc2C)n1	5.2	1.6%	6%	.	3.3	10%	5%
38	CC(Cl)C(=O)Nc1cc(C(C)(C)C)nn1-c1ccccc1 (stereo unspecified)	-0.2	0.3%	0%	2.6%	-6.2	18%	4%
39	Cc1c(C)c(C)c(S(=O)(=O)NCCc2ccccn2)c(C)c1C	.	0.5%	20%	0.3%	0.2	13%	9%
40	COc1cccc(C(=O)NC2CCN(CC(=O)Nc3nccs3)CC2)c1	-2.2	-0.2%	-19%	2.7%	-2.4	-4%	15%
41	CC1CCCCC1NC(=O)CSc1ccc([N+](=O)[O-])cc1 (stereo unspecified)	?	0.7%	15%[15.4 µM]	.	-3.8	8%	1%
42	Clc1ccc(CNc2ccc(CNc3ncn[nH]3)cc2)c(Cl)c1	-3.0	-1.2%	-4%[15.4 µM]	.	0.3	?	1%
43	O=C(c1ccccc1)c1ccccc1N1C(=O)C=CC1=O	3.8	-3.4%	-9%[15.4 µM]	-0.7%	-7.0	1.3µM*	-13%
44	CCOC(=O)NC(NC(=O)OCC)C(=O)c1ccc(F)cc1	-1.1	-3.1%[38.3 µM]	12%	-4.1%	-2.7	20%	5%
45	Cc1cc(C)cc(NC(=O)Cn2nnc(C(=O)NCCc3ccccc3)c2N)c1	-1.9	-0.3%&-0.4%	-10%	-0.2%&-4.6%	-2.2	-19%	1%
46	CC(=O)c1ccc(S(=O)(=O)N2CCN(C(=O)c3ccc(COc4ccccc4)o3)CC2)cc1	.	-0.6%	-5%[15.4 µM]	3.8%	-1.5	.	?
47	COc1ccc2[nH]c(C)c(C(=O)CN(C)CC3OCCO3)c2c1	-1.8	-0.3%	-6%[15.4 µM]	2.6%	-2.1	-16%	-10%
48	CCN1CCN(CCNC(=O)c2ccc(/C=C3/Sc4ccccc4N(Cc4cccc(Cl)c4)C3=O)cc2)CC1	0.0	0.7%	-1%[15.4 µM]	.	9.7	50µM*	-7%

Next records follow:
item	molecule	Menin MLL FP FL	PINK1 modulator	gsp agonist	ClpP mod	D2 ag	Sfp inh	gsp antagonist
49	Cc1cc(C)c2[nH]c(=O)c(CN(Cc3ccco3)C(=O)C3CCCO3)cc2c1 (stereo unspecified)	1.4	-0.1%	-44%[inhibitor]	-20%	-1.3	?	-7%
50	CCOc1cc(NS(=O)(=O)c2ccc(OC)cc2)c(OCC)cc1NC(C)=O	4.0	2.5%	-8%[15.4 µM]	.	4.9	-2%	-8%
51	CCSc1sccc1C1C(C#N)=C(N)N(c2cccnc2)C2=C1C(=O)CC(C)(C)C2 (stereo unspecified)	2.9	0.6%	-19%	-22%	-0.5	-16%	12%
52	Nc1nc(CSc2ccccn2)nc(Nc2ccccc2)n1	1.1	-1.2%	?	-3.7%	-2.6	1%	23%
53	COCCNC(=O)CN1C(=O)c2cccc3cccc1c23	1.1	0.2%	0%[15.4 µM]	0.5%	10	6%	3%
54	CCOc1cc(C2C3=C(CCCC3=O)OC3=C2C(=O)CCC3)cc([N+](=O)[O-])c1O	-3.5	0.4%	40%	.	-6.5	15%	-11%
55	CC1CCN(S(=O)(=O)c2ccc(NC(=O)CSc3nnnn3C)cc2)CC1	3.0	0.0%	-6%	0.3%	-1.2	7%	18%
